TRPML1 inh: blocks the human TRPML1 channel. 390,000 compounds, 0.02% hits. activity change, negative = inhibition, % (no concentration beside the values). AID 624415. TRPML1-inducible cells, Ca2+ dye fluorescence, FDSS; hits give low values; inhibition of EC80 agonist-evoked calcium signal; in the data active means activity change below about -50%; inconclusive means about -30% to -50%; inactive means above about -30%;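 further: stimulus is agonist 54-4 at its EC80 concentration; on the % scale 0 is the no-effect control and ±100 the full control effect; compound concentration not given in the record; the text of the record puts the active cut at -80%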
Target sequence (Q9GZU1 whole entry, looked up): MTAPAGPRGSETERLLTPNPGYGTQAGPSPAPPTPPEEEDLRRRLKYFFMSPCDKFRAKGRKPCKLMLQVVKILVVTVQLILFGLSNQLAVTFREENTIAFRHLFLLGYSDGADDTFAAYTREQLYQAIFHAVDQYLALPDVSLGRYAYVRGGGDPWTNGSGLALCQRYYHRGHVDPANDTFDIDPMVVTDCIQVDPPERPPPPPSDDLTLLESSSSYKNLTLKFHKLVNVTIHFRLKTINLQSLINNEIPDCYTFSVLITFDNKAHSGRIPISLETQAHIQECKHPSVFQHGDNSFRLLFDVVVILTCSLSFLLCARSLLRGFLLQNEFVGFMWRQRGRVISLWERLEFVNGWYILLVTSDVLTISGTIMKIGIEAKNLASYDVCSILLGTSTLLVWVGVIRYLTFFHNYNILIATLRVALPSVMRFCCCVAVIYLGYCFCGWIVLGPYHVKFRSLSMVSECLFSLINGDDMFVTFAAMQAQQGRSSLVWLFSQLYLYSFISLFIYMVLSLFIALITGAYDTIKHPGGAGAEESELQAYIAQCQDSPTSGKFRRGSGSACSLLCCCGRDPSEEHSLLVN
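Calcium fluorescence in TRPML1-DL cells induced overnight with Tet: a 110 s read after compound pin addition, then a 110 s antagonist read after challenge with 54-4 at 4 uM final (EC80).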
Six1-Eya2 inh: inhibitors of human Six1/Eya2 interaction | Q15475+O00167 | AlphaScreen GST-Six1/His-Eya2 binding, biochemical; hits give low values; control for the full effect not named in the record | activity change, % (test concentration not listed) | 360,000 compounds, 0.56% hits; in the data active = activity change below about -65%; inconclusive = about -30% to -65%; inactive = above about -30%; further: on the % scale 0 is the no-effect control and ±100 the full control effect
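Compounds are tested against tagged Six1 and Eya2 proteins bridged by glutathione donor and nickel acceptor beads; after a one-hour incubation at 37 °C without light, AlphaScreen emission is recorded.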
TRPML1 agonist: activates the human TRPML1 channel; Q9GZU1; TRPML1-expressing cells, Ca2+ dye fluorescence, FDSS; host cell line not named in the record; reference of the full effect not given here; activation, % (no concentration beside the values); 410,000 compounds, 0.12% hits; AID 624414; in the data active = activation above about 50%; inconclusive = about 30% to 50%; inactive = below about 30%; further: 0% is about no effect; the text of the record puts the active cut at 80%
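TRPML1-DL cells, Tet-induced overnight (~16 h, 37 degrees C), loaded 45-90 min at room temperature with Ca8 no-wash calcium dye plus quencher. FDSS fluorescence: 10 s baseline, compound pin-transfer, 110 s agonist read, then EC80 54-4 (4uM final) and 110 s antagonist read.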
CtBP-E1A inh: blocks the CtBP interaction with E1A; AlphaScreen GST-E1A/His-CtBP binding, 1536-well; hits give low values; control for the full effect not named in the record; 340,000 compounds, 0.49% hits; AID 651724; activity change, % (no concentration beside the values); in the data active means activity change below about -65%; inconclusive means about -30% to -65%; inactive means above about -30%; further: on the % scale 0 is the no-effect control and ±100 the full control effect
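GST-E1A and His-tagged CtBP (125 nM each as 5X stock) were preincubated with pin-transferred compound for 2 h at 37 °C in the dark, then glutathione donor and nickel acceptor beads were added for 1 h before AlphaScreen reading.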
D2 ag: agonists of human D2 dopamine receptor (beta-arrestin); P14416; DiscoveRx PathHunter D2 beta-arrestin, luminescence, 90 min; 100% = 57 uM dopamine signal; activation, % (test concentration not listed); 360,000 compounds, 0.084% hits; AID 624465; in the data active = activation above about 40%; inconclusive = about 15% to 40%; inactive = below about 15%; further: compound concentration not given in the record; the text of the record calls up to 30% inactive
Target sequence (P14416 whole entry, looked up): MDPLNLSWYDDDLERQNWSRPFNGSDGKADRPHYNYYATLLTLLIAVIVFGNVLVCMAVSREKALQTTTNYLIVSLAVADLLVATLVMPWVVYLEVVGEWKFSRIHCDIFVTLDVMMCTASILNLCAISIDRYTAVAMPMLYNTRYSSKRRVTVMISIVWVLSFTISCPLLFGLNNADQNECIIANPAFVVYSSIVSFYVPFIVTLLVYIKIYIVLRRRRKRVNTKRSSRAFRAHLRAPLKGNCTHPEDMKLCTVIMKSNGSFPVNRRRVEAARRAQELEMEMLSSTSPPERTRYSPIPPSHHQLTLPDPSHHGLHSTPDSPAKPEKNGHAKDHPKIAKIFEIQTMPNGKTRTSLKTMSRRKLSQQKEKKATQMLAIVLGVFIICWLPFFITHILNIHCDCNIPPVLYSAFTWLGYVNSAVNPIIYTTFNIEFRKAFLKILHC
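Agonist mode: compounds alone added to overnight-plated D2 PathHunter cells for 90 min at 37 C, with 57 uM final dopamine (EC100) defining full response. Beta-arrestin recruitment detected by chemiluminescent reagent, read after 1 h at ambient temperature.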
PINK1 modulator: changes PINK1 expression | PINK1 immunofluorescence, high-content cytometry, 24 h | Potency, µM (highest dose often 76.6 µM), for inactives: at the highest dose activation (PINK1 increase), usual class: activators | 410,000 compounds, 0.2% hits; active = well fitted activation curve with a large enough effect; inconclusive = small, poorly fitted or top-dose-only effect; inactive = flat fitted curve, though single readings scatter; cell line not stated here;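 further: potency means the concentration at half of the fitted maximal effect; % of control where 0% means no effect; nearly all actives have a fitted effect of over 65% in size; a mitochondrial uncoupler was the plate control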
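PINK1 protein level read as immunofluorescence by microplate cytometer in a fixed, stained stable cell line after 24 h exposure to five compound concentrations, with CCCP as control.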
The depositor's hits bear a star; ? = inconclusive; . = no result given; & = joins results of further samples; [ ] = another dose, or the depositor's remark. Hits appear at their usual frequency. About 1% of those tested had a hit in this group.

item | SMILES | TRPML1 inh | Six1-Eya2 inh | TRPML1 agonist | CtBP-E1A inh | D2 ag | PINK1 modulator
1 | C=CCNC(=O)c1ccc2nc(Cc3ccc(OC)cc3)oc2c1 | -6 | 0 | -0.8 | 10 | 0.8 | 0.1%
2 | CCCCCC(=O)N1C[C@@H](n2cc(COC(=O)c3ccccc3)nn2)[C@H](O)C[C@@H]1c1ccc(Cl)cc1 | -3 | -10 | 1.3 | -1 | -8.0 | 4.6%
3 | O=C(O)c1ccc(N2CCOCC2)c(N2C(=O)C3C4C=CC(C4)C3C2=O)c1 (stereo unspecified) | -2 | -1 | -0.9 | 13 | 4.0 | 4.5%
4 | O=C1c2ccsc2SCCN1Cc1c(Cl)cccc1Cl | -3 | 0 | 2.5 | -5 | -3.2 | -0.3%
5 | COC(=O)c1ccc(/C=C2\SC(=S)N(CCCC(=O)NCCCN3CCOCC3)C2=O)cc1 | 3 | 0 | 0.0 | 24 | 1.1 | 3.2%
6 | CC(=NNC(=S)N1CCC1)c1ccccn1 | -4 | -91* | 0.8 | -95* | ? | -0.4%
7 | CCC(CC)c1nnc(NC(=O)CCN2C(=O)c3ccccc3C2=O)s1 | 5 | 3 | 1.5 | -3 | -2.6 | 0.7%
8 | O=C(NC1CCCC1)c1cc2ccccc2o1 | 16 | -1 | 0.4 | -1 | -1.4 | 0.4%
9 | CCOc1ccc(CCNC(=O)c2cc3c(=O)n(C)c4ccccc4c3s2)cc1OCC | 12 | . | -0.3 | . | . | -1.1%
10 | Cn1c(=O)c2c(-c3ccccc3)n(-c3ccccc3F)cc2n(C)c1=O | . | 7 | -0.6 | -8 | -2.4 | 1.0%
11 | COc1ccc(CCNC(=O)c2cc(COc3c(F)cccc3F)on2)c(OC)c1 | -14 | 3 | 3.0 | 24 | -2.5 | -2.2%
12 | CC1(C)COC2(OC1)C(=O)N(CN1CCOCC1)c1ccccc12 | -8 | 4 | -1.1 | 4 | -2.1 | 0.6%
13 | O=C(O)CC1S/C(=N/N=C/c2ccc(-c3ccc(Cl)c([N+](=O)[O-])c3)o2)NC1=O (stereo unspecified) | 5 | -13 | -0.5 | -7 | -2.0 | 3.1%
14 | O=C(COC(=O)c1cccs1)Nc1ccccc1[N+](=O)[O-] | 18 | -8 | 0.7 | -8 | -9.6 | 3.6%
15 | Cc1ccc(N(CC(=O)N2CCN(Cc3ccccc3)CC2)S(C)(=O)=O)cc1C | 6 | 2 | 1.7 | -2 | -4.7 | -0.3%
16 | CCOC(=O)N1CCC(NC(=O)C(C)n2c3ccccc3c3cnn(C)c(=O)c32)CC1 (stereo unspecified) | 39 | 0 | 0.8 | 0 | 1.4 | -0.9%
17 | Cc1ccc(S(=O)(=O)NC(C(=O)OCC(=O)NC(=O)c2cccn2C)C(C)C)cc1 (stereo unspecified) | -2 | 0 | 2.4 | -2 | -1.6 | 0.5%
18 | CCC(=O)c1cc(F)ccc1OCC(=O)Nc1ccc2c(c1)OCCO2 | 5 | 3 | 1.7 | 1 | -2.9 | 4.3%
19 | CN(C)CCNc1c2c(c(C#N)c3nc4ccccc4n13)CCCC2 | 8 | 11 | 1.6 | 0 | -2.5 | -1.3%
20 | CN(C)c1ccc(/C=C/C(=O)c2c(O)c3ccccc3oc2=O)cc1 | ? | 4 | 0.2 | -13 | 3.8 | 4.3%
21 | CCOC(=O)N1CCN(C(=O)COc2cccc3c2CCN(Cc2ccccc2F)C3=O)CC1 | -9 | 4 | 3.4 | 5 | 1.3 | 4.4%
22 | CCCN1CCC(C(=O)NC(c2ccc(F)cc2)c2ncccc2C)CC1 (stereo unspecified) | . | -4 | -0.8 | -6 | -5.7 | 3.7%
23 | COC(=O)c1c(F)c(F)c(N2CCOCC2)c(F)c1F | 6 | 8 | 0.4 | 4 | 2.2 | ?
24 | COc1cccc(CNC(=O)C2CCN(S(=O)(=O)c3ccc(-n4cnnn4)cc3)CC2)c1 | 21 | -5 | -0.6 | 4 | 2.6 | 2.5%
25 | Cc1ccc(NC(=O)CSCC(=O)Nc2cc(Cl)ccc2N2CCN(C)CC2)cc1 | 0 | 7 | 0.6 | 2 | -1.5 | 1.2%
26 | COc1ccc(NC(=O)C(=O)N/N=C/c2cccnc2)cc1 | 0 | 4 | -0.7 | 4 | 2.6 | 0.5%
27 | COc1ccc(Cl)cc1NC(=O)CCS(=O)(=O)c1cccc2nonc12 | -9 | . | -0.5 | . | . | 0.5%
28 | OC1COC(c2ccccc2)OC1C1OC(c2ccccc2)OCC1O (stereo unspecified) | . | 1 | . | 9 | -6.2 | 1.7%
29 | CCOC(=O)C1(CCOc2ccccc2)CCN(Cc2ccc(OC)c(O)c2)CC1 | 2 | -9 | -0.2 | 3 | -2.5 | 1.3%
30 | O=C(Cn1cnc2ccccc2c1=O)Nc1ccc(N2CCOCC2)cc1 | -6 | -19 | -0.4 | 2 | 1.5 | 1.2%

Five records picked at random from the list so far:
item | SMILES | TRPML1 inh | Six1-Eya2 inh | TRPML1 agonist | CtBP-E1A inh | D2 ag | PINK1 modulator
1 | C=CCNC(=O)c1ccc2nc(Cc3ccc(OC)cc3)oc2c1 | -6 | 0 | -0.8 | 10 | 0.8 | 0.1%
9 | CCOc1ccc(CCNC(=O)c2cc3c(=O)n(C)c4ccccc4c3s2)cc1OCC | 12 | . | -0.3 | . | . | -1.1%
17 | Cc1ccc(S(=O)(=O)NC(C(=O)OCC(=O)NC(=O)c2cccn2C)C(C)C)cc1 (stereo unspecified) | -2 | 0 | 2.4 | -2 | -1.6 | 0.5%
23 | COC(=O)c1c(F)c(F)c(N2CCOCC2)c(F)c1F | 6 | 8 | 0.4 | 4 | 2.2 | ?
19 | CN(C)CCNc1c2c(c(C#N)c3nc4ccccc4n13)CCCC2 | 8 | 11 | 1.6 | 0 | -2.5 | -1.3%

Part of the list above in order of molecular weight, low to high.
item | SMILES | TRPML1 inh | Six1-Eya2 inh | TRPML1 agonist | CtBP-E1A inh | D2 ag | PINK1 modulator
26 | COc1ccc(NC(=O)C(=O)N/N=C/c2cccnc2)cc1 | 0 | 4 | -0.7 | 4 | 2.6 | 0.5%
22 | CCCN1CCC(C(=O)NC(c2ccc(F)cc2)c2ncccc2C)CC1 (stereo unspecified) | . | -4 | -0.8 | -6 | -5.7 | 3.7%
27 | COc1ccc(Cl)cc1NC(=O)CCS(=O)(=O)c1cccc2nonc12 | -9 | . | -0.5 | . | . | 0.5%

Returning to the listing; the two compounds before the break are reprinted first.
item | SMILES | TRPML1 inh | Six1-Eya2 inh | TRPML1 agonist | CtBP-E1A inh | D2 ag | PINK1 modulator
29 | CCOC(=O)C1(CCOc2ccccc2)CCN(Cc2ccc(OC)c(O)c2)CC1 | 2 | -9 | -0.2 | 3 | -2.5 | 1.3%
30 | O=C(Cn1cnc2ccccc2c1=O)Nc1ccc(N2CCOCC2)cc1 | -6 | -19 | -0.4 | 2 | 1.5 | 1.2%
31 | Cn1nc(C(=O)OCC(=O)NCc2ccc(Cl)cc2)c2ccccc2c1=O | 4 | 5 | 0.3 | . | -1.4 | 1.2%
32 | O=C(Nc1cccc(S(=O)(=O)Nc2ccc(SC(F)F)cc2)c1)C1CCC1 | 22 | 7 | 2.3 | 3 | -2.6 | -0.3%
33 | COC(=O)NNC(=O)c1ccc(C)c(Br)c1 | -9 | 1 | 0.3 | 1 | -3.1 | 0.9%
34 | O=C(O)c1ccc(NC(=O)c2cc3ccccc3o2)cc1 | -10&-12 | -7 | -0.8&-0.4 | . | 3.3 | 1.3%&2.8%
35 | N#Cc1c(NC(=O)C2CC2)sc2c1CCCCC2 | 1 | -10 | 2.2 | -4 | -1.2 | 11%
36 | CCOc1ccc(Br)cc1/C=N/NC(=O)c1ccncc1 | -13 | 6 | 1.0 | -5 | -1.1 | -0.1%
37 | CCOC(=O)N1CCN(Cc2nc3cc(NC(C)=O)ccc3n2C(C)C)CC1 | 20 | . | -0.8 | . | . | 3.2%
38 | CCN1C(=NCC2CC2)N[C@@H](c2ccccc2)C(C(=O)OC)=C1C | -5 | -2 | 0.1 | 2 | -5.5 | -0.4%
39 | O=C(c1ccco1)N1CCN=C1SCc1ccccc1F | -3 | 0 | -0.1 | 3 | -2.6 | 4.1%
40 | Oc1ccc(CN2CCC(Cc3ccccc3)CC2)c2cccnc12 | 18 | -73* | 0.5 | ? | -11 | -0.1%
41 | Cc1noc(C)c1CN1C(=O)NC2(CCc3ccccc3C2)C1=O (stereo unspecified) | 9 | 12 | -0.4 | 7 | -2.2 | 1.9%
42 | CN1CCN(CCOc2ccc(-c3ccccc3)cc2)CC1 | 1 | 0 | 0.6 | 0 | -3.3 | 1.4%
43 | COc1ccc(-c2cc(C(=O)Nc3c(C)nn(Cc4ccccc4Cl)c3C)no2)cc1OC | 7 | -14 | 1.9 | -13 | 2.6 | 13%[38.3 µM]
44 | CCOC(=O)c1c(-c2ccccc2)nc2ccc(Cl)cn12 | 11 | -1 | 2.8 | 6 | 0.0 | -2.0%
45 | COc1ccc(NC2=C(C)C(=O)CC2)cc1 | 10 | -1 | -0.9 | -3 | -4.8 | 15%
46 | Cc1c(Cl)cccc1NC(=O)Cn1c(=O)n(Cc2ccco2)c(=O)c2oc3ccccc3c21 | 44 | . | 0.6 | . | . | 2.5%
47 | CCc1cc(=O)oc2c(C)c(O)c(CN3CCCCC3)cc12 | 8 | 5 | -0.4 | 3 | -4.6 | -2.6%
48 | CC1CN(C(=O)COC(=O)/C=C/c2ccccc2)CC(C)O1 (stereo unspecified) | -3 | -7 | -0.4 | 1 | -4.4 | 0.2%
49 | CC1(C)CC(=O)C=C(c2ccc(I)cc2)C1 | -9 | -2 | 2.1 | -10 | -6.3 | -0.3%
50 | Cc1nnc(SCC(=O)NC2CC2)n1CCc1ccccc1 | 0 | 3 | -0.3 | -4 | -2.0 | -0.7%

Two compounds from above, showing only TRPML1 inh:
#	SMILES	TRPML1 inh
42	CN1CCN(CCOc2ccc(-c3ccccc3)cc2)CC1	1
43	COc1ccc(-c2cc(C(=O)Nc3c(C)nn(Cc4ccccc4Cl)c3C)no2)cc1OC	7

The listing continues.
item | SMILES | TRPML1 inh | Six1-Eya2 inh | TRPML1 agonist | CtBP-E1A inh | D2 ag | PINK1 modulator
51 | CC1Cc2cc(C3(O)C(=O)c4ccccc4C3=O)ccc2N1 (stereo unspecified) | 25 | -4 | 0.5 | 9 | -2.2 | .
52 | Cc1cc(=O)[nH]c2c1c(C)nn2C1CCCCC1 | -5 | 0 | 0.0 | 3 | 0.6 | 0.6%[38.3 µM]
53 | COc1ccc(Nc2nc(NCc3ccco3)nc(N)c2[N+](=O)[O-])cc1 | 0 | 3 | 1.0 | -2 | -0.5 | -0.5%
54 | Cc1csc(NC(=O)CSc2nnc(NC(=O)COc3ccc(Cl)cc3)s2)n1 | -7 | -4 | 0.8 | 6 | -5.1 | 7.5%
55 | Cc1ccc(C(=O)C2CCN(C(=S)NCC3CCCO3)CC2)cc1 (stereo unspecified) | 25 | 2 | 0.3 | -16 | 3.4 | 1.4%
56 | CC(C)(C)OC(=O)NCc1ccc(CNC(=O)c2[nH]cnc2C(=O)NCC(=O)OCc2ccccc2)cc1 | -1 | -2 | -0.4 | 3 | ? | 5.7%
57 | Cc1ccccc1CSc1nc2ccccc2c(=O)[nH]1 | -6 | -9 | -0.5 | -9 | 0.4 | 2.4%
